# Source: PubChem
# ClpP mod: qHTS Assay for Activators of ClpP; ATP-dependent Clp protease proteolytic subunit (Bacillus subtilis (strain 168)), P80244; purified B. subtilis ClpP, FRET peptide cleavage, 20 min; Potency, µM (series often up to 57.5 µM), for inactives: top-dose activity change, negative = active; 1.9% of 340,000 active; AID 651965, 2013; active = well fitted falling curve with a large enough effect; inconclusive = small, poorly fitted or top-dose-only effect; inactive = no such curve, though single readings can be large or run the other way; also: potency is read from the fitted curve at half-maximal effect; the source files actives as falling curves though it sought activators and does not explain the sign; nearly all actives have a fitted effect of over 65% in size; many hits overshoot -100%
# Target sequence (P80244 whole entry, looked up): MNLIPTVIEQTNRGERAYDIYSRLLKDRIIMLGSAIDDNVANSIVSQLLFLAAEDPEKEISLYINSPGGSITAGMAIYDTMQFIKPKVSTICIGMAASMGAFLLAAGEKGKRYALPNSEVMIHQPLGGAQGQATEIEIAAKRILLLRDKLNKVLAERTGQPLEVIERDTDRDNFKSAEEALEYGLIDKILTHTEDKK
#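 Buffer: 100 mM Tris/HCl pH8, 100 mM KCl, 0.05% low protease BSA, 2.5% glycerol, 0.01% Tween-20. ClpP 10 microg/mL final; 20 min RT; delta FRET normalized to ADEP and DMSO controls.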
# gsp antag: gsp mutant antagonism; gsp-mutant cells, cAMP HTRF, 30 min; control for the full effect not named in the record; Potency, µM (highest dose often 76.9 µM), for inactives: at the top dose activity change, negative = inhibition, usual class: inhibitors; 0.4% of 340,000 active; active = falling curve of any shape with a large fitted effect; inconclusive = falling curve, mostly with a smaller effect; inactive = flat or rising curve; cell line not stated here;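 also: intracellular cAMP measured with PDE inhibitor Ro 20-1724 present during compound exposure; potency is read from the fitted curve at half-maximal effect; % is scaled to controls: 0 for no effect and ±100 for the full control effect; nearly all actives have a fitted effect of over 65% in size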
#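 G418-selected cells were plated in DMEM/10% FBS for 16-24 h at 37C, then treated with compounds plus the PDE inhibitor […] (300 uM solution added) for 30 min at 37C. Intracellular cAMP was measured by HTRF after 30 min lysis at room temperature.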
# Menin MLL FP FL: displaces fluorescein MLL peptide from human menin; Fluorescence polarization, fluorescein-MLL peptide displacement from menin; 290,000 tested, under 10 active; AID 1766; FP activity change, % at 61.4 µM; inconclusive = falling polarisation curve, or a change in total fluorescence; inactive = total fluorescence flat and polarisation flat or rising; no compound was filed as active; the % refers to the polarisation; negative = inhibition;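 also: % of control where 0% means no effect; inhibitors lower the polarisation; unlabelled MLL peptide was the positive control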
# TRPML1 blocker: human mucolipin-1 channel inhibition; AID 624415; 0.02% of 390,000 active; TRPML1-inducible cells, Ca2+ dye fluorescence, FDSS; hits give low values; inhibition of EC80 agonist-evoked calcium signal; activity change, negative = inhibition, % (test concentration not listed); Q9GZU1; in the data active means activity change below about -50%; inconclusive means about -30% to -50%; inactive means above about -30%;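 also: stimulus is agonist 54-4 at its EC80 concentration; % is scaled to controls: 0 for no effect and ±100 for the full control effect; compound concentration not given in the record; the text of the record puts the active cut at -80%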
# Target sequence (Q9GZU1 whole entry, looked up): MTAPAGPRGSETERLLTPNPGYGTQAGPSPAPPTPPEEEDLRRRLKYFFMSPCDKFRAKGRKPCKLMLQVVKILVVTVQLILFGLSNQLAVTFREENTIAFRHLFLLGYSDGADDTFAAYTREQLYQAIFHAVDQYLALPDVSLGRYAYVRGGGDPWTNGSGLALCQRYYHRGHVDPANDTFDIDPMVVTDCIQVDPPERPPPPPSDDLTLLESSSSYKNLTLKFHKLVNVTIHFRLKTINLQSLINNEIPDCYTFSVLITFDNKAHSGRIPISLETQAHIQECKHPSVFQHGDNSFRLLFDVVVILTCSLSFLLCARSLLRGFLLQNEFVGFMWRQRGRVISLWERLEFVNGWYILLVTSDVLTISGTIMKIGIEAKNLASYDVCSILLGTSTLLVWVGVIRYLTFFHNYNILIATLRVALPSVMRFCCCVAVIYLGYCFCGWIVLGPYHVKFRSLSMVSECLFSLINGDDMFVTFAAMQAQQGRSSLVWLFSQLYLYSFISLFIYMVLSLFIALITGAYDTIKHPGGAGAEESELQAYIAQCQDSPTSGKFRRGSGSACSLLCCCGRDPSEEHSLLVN
#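 Calcium fluorescence in TRPML1-DL cells induced overnight with Tet: a 110 s read after compound pin addition, then a 110 s antagonist read after challenge with 54-4 at 4 uM final (EC80).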
# gsp agonist: gsp mutant agonism. gsp mutant cells, cAMP HTRF, 30 min; control for the full effect not named in the record. Potency, µM (top dose mostly 76.9 µM), without a hit: top-dose activation (cAMP increase), actives largely listed as activators. 0.13% of 340,000 active. AID 624287; active = well fitted activation curve with a large enough effect; inconclusive = small, poorly fitted or top-dose-only effect, or another doubt; inactive = no such curve, though single readings can be large or run the other way; cell line not stated here;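 also: phosphodiesterase inhibitor Ro 20-1724 added with compounds to block cAMP breakdown; potency is read from the fitted curve at half-maximal effect; nearly all actives have a fitted effect of over 60% in size; about a fifth of the inactives were tested at one dose only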
#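 Cells in DMEM/10% FBS with G418 were pretreated with compounds in DMSO plus […] (300 uM stock) for 30 min at 37C. cAMP was measured by HTRF (cAMP-d2 plus anti-cAMP antibody-K) after 30 min at room temperature.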
# TRPML1 agonist: activates the human TRPML1 channel | Q9GZU1 | TRPML1-expressing cells, Ca2+ dye fluorescence, FDSS; host cell line not named in the record; reference of the full effect not given here | activation, % (no concentration beside the values) | 0.12% of 410,000 active | AID 624414; in the data active = activation above about 50%; inconclusive = about 30% to 50%; inactive = below about 30%; also: 0% is about no effect; the text of the record puts the active cut at 80%
#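 Tet-induced TRPML1-DL cells, 1,500 per well, cultured overnight, were loaded with a no-wash Ca2+ dye for 45–90 min. Calcium fluorescence was recorded on the FDSS for 110 s after compound addition, before the EC80 agonist (4 uM 54-4) was added.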
# The depositor's hits bear a star; ? = inconclusive; / = not tested or not shown; [ ] = another dose, or the depositor's remark.
SMILES,ClpP mod,gsp antag,Menin MLL FP FL,TRPML1 blocker,gsp agonist,TRPML1 agonist
O=C(N/N=C/C=C/c1ccco1)c1cccnc1,-5.3%,-3%,11,3,24%,1.0
COc1cc(SC)ccc1C(=O)Nc1ccon1,-3.2%,-9%,3.9,5,?,-0.2
COc1cc(NC(=O)C2=CC(c3cccs3)=NS(=O)(=O)N2C)cc(OC)c1OC,-1.0%,-7%,-2.2,33,-25%,2.1
CCCOc1ccc(/C=N/NC(=O)C(=O)Nc2ccccn2)cc1,-4.6%,3%,-0.1,1,-28%,0.6
O=C(NC(=S)NC1C2CC3CC(C2)CC1C3)C12CC3CC(CC(C3)C1)C2 (stereo not drawn),-1.3%,10%,2.6,28,0%,0.1
CCOC(=O)c1ccc(NC(=O)C(C)Sc2nc(=O)cc(N)n2CCc2ccccc2)cc1 (stereo not drawn),-1.1%,/,/,9,/,4.8
Cc1noc(NS(=O)(=O)c2ccc(NC(=O)c3cccc(S(=O)(=O)Nc4ccccc4F)c3)cc2)c1C,1.0%,11%,/,-16,0%[15.4 µM],0.2
CNC(=O)C1(c2ccccc2)CCCCC1,-1.1%,/,/,4,5%,0.7
CCOC(=O)c1c(C)n(C)c2cc(-c3ccc(C)cc3)c(O)cc12,/,7%,0.1,7,-39%[inhibitor],0.2
CCC(C)c1ccc(NC(=S)NC(C)C2CCCO2)cc1 (stereo not drawn),0.6%,-8%,-1.6,0,-25%,2.2
O=C(Nc1ccc(Cl)c(S(=O)(=O)N2CCOCC2)c1)c1ccc2c(c1)OCCO2,0.2%,-28%,2.6,14,-27%,0.1
O=C1CC(N2CCN(c3ccccc3Cl)CC2)C(=O)N1c1cccc(F)c1 (stereo not drawn),0.4%,6%,0.0,4,-19%,-0.7
Cc1ccc(S(=O)(=O)N2CCC(C(=O)NCCc3ccc(S(N)(=O)=O)cc3)CC2)cc1,-1.5%,8%,0.2,-9,9%,0.0
CCc1cccc(NC(=O)c2c(C)oc3ncnc(N4CCCCC4)c23)c1,-0.8%,/,/,-15,/,0.2
COc1ccc(CNc2nc3c(c(=O)n(Cc4ccc(Cl)cc4)c(=O)n3C)n2C)cc1,-4.0%,-27%,1.3,25,?,0.0
Cc1cc(N2CCCC2)nc2ccccc12,?,4%,2.1,-16,12%,-0.2
Cc1ccc(NC(=O)CS(=O)CC(=O)N(CC(=O)NC(C)(C)C)c2cccc(C)c2C)cc1 (stereo not drawn),-1.7%,7%,-1.2,6,10%[15.4 µM],-0.5
CN(C(=O)CSc1ncc(C(F)(F)F)cc1Cl)c1c(N)n(Cc2ccccc2)c(=O)[nH]c1=O,/,5%,-0.5,3,2%,-0.2
Cc1c(N=C2N=C(NC(=O)Nc3ccc(Cl)cc3)c3ccccc32)c(=O)n(-c2ccccc2)n1C,/,/,-8.7,15,3%[15.4 µM],-0.7
CCn1c(=O)c(C(C)=O)c(O)c2ccccc21,-2.2%,3%,1.4,11,14%[15.4 µM],0.8
CN(C)C(=O)CN(C)S(=O)(=O)c1ccc(Cl)cc1,2.8%,8%,-2.8,-7,-4%,2.4
CCCCN(C)C1=Nc2cccc3cccc1c23,-0.1%,-3%,-1.4,-5,-13%,0.7
Cc1ccc([N+](=O)[O-])cc1NC(=O)c1c(-c2ccccc2)noc1C,-2.7%,5%,/,8,10%[15.4 µM],0.1
CCOC(=O)C1=NNC2(c3ccc(Cl)cc3)C(=O)N(c3cc(C)cc(C)c3)C(=O)C12 (stereo not drawn),-5.0%,10%,3.8,-3,0%,0.4
CC1(C)NC(=O)N(CCOCCOc2ccccc2-c2ccccc2)C1=O,1.4%,2%,0.8,2,-32%[inhibitor],1.7
# (next part)
SMILES,ClpP mod,gsp antag,Menin MLL FP FL,TRPML1 blocker,gsp agonist,TRPML1 agonist
Cc1cc(C)nc(SCC(=O)Nc2ccc(S(=O)(=O)Nc3ncccn3)cc2)n1,/,9%,?,2,?,1.0
OC(COCc1ccccc1)CN1CCCCC1 (stereo not drawn),-2.8%,7%,-3.2,-7,-70%[inhibitor],0.4
CC1CCCN(Cc2nc3c(c(=O)n(C)c(=O)n3C)n2CC(N)=O)C1 (stereo not drawn),-4.2%,6%,3.5,19,16%,0.2
COc1ccccc1S(=O)(=O)N1CCN(S(=O)(=O)c2cccs2)CC1,-1.1%,8%,/,1,?,0.2
Cc1cccc(C(=O)Nc2ccc(N3CCC(N4CCCCC4)CC3)c(C(=O)O)c2)c1,2.4%,/,/,-4,/,-0.2
CC(=O)NC12CC3CC(C1)CC(C(=O)N1CCN(S(=O)(=O)c4cccc(F)c4)CC1)(C3)C2,-4.4%,6%,6.1,0,-16%[15.4 µM],0.5
Cc1ccc(-c2cn(-c3ccccc3)c(SCC(N)=O)n2)cc1C,0.2%,0%,5.9,30,-17%,0.0
CCOC(=O)C1CCN(S(=O)(=O)c2ccc(-c3ccccn3)s2)CC1,-0.2%,-11%,-0.8,-7,-72%[inhibitor],2.7
O=S(=O)(/N=C(\c1ccc(Cl)cc1)N1CCOCC1)c1ccccc1,-3.6%,7%,6.0,5,1%[15.4 µM],-0.5
CCN(Cc1ccccc1)C(=O)Cn1c(=O)n(-c2ccc(Cl)c(Cl)c2)c(=O)c2c(C)c(C(=O)N(C)C)sc21,-2.7%,/,/,4,/,0.6
O=c1[nH]c(SCc2c(F)cccc2Cl)nc2c1CCC2,-1.2%,/,/,12,/,2.6
Cn1c(-c2nonc2N)nc2ccccc21,-2.1%,3%,0.3,34,-14%,-0.7
COc1ccccc1CNC(=O)CSc1n[nH]c(N)n1,/,5%,-1.9,35,1%[15.4 µM],0.3
O=C1c2ccccc2C(=O)c2c1cccc2N1CCCC1,-3.7%,?,-0.7,16,-14%,3.2
CCOc1ccc(NC(=O)COc2ccc(S(=O)(=O)N3CCCC3)cc2)cc1,/,-2%,2.0,-16,-17%[15.4 µM],0.9
Cc1ccc(C)c(NC(=O)CS(=O)(=O)c2cccc3nsnc23)c1,-0.5%,-33%,-1.3,/,-34%,/
Cc1cc(SCCOc2ccccc2)nc(N)n1,0.0%,?,-0.2,6,28%,2.0
COc1ccccc1-c1nnc(NC(C)=O)s1,28µM*,-6%,1.4,-15,0%,-0.3
NNC(=O)CNc1cccc(Br)c1,-0.7%,6%,1.3,-10,0%,0.2
S=c1nc(-c2ccccc2)n(CCCN2CCOCC2)c2c1CCCC2,-0.4%,0%,1.5,-2,4%,0.0
C[C@@H](C(=O)N[C@@H](Cc1c[nH]c2ccccc12)C(=O)O)n1nnc2ccccc2c1=O,-0.6%,7%,4.0,10,-21%,-0.5
Cc1ccc(C(C)C)cc1OCCOCCN1CCCC1,-1.6%,10%,-3.9,26,-9%,0.0
OCCNc1ncnc2c1nnn2Cc1ccccc1Cl,-6.7%,/,/,9,-38%[inhibitor],-0.4
O=C(c1cnccn1)N(Cc1ccco1)C1(C(=O)NC2CCCCC2)CCCCC1,-0.1%,5%,-0.6,7,-10%,-1.4
CCOC(=O)C1CCN(c2ncnc3nc[nH]c23)CC1,0.1%,-4%,7.6,-14,-35%,-0.4

# Another view of part of the listing above.
compound	ClpP mod	gsp antag	Menin MLL FP FL	TRPML1 blocker	gsp agonist	TRPML1 agonist
COc1ccccc1S(=O)(=O)N1CCN(S(=O)(=O)c2cccs2)CC1	-1.1%	8%	/	1	?	0.2
Cc1cccc(C(=O)Nc2ccc(N3CCC(N4CCCCC4)CC3)c(C(=O)O)c2)c1	2.4%	/	/	-4	/	-0.2
CC(=O)NC12CC3CC(C1)CC(C(=O)N1CCN(S(=O)(=O)c4cccc(F)c4)CC1)(C3)C2	-4.4%	6%	6.1	0	-16%[15.4 µM]	0.5
Cc1ccc(-c2cn(-c3ccccc3)c(SCC(N)=O)n2)cc1C	0.2%	0%	5.9	30	-17%	0.0
CCOC(=O)C1CCN(S(=O)(=O)c2ccc(-c3ccccn3)s2)CC1	-0.2%	-11%	-0.8	-7	-72%[inhibitor]	2.7
O=S(=O)(/N=C(\c1ccc(Cl)cc1)N1CCOCC1)c1ccccc1	-3.6%	7%	6.0	5	1%[15.4 µM]	-0.5
CCN(Cc1ccccc1)C(=O)Cn1c(=O)n(-c2ccc(Cl)c(Cl)c2)c(=O)c2c(C)c(C(=O)N(C)C)sc21	-2.7%	/	/	4	/	0.6
O=c1[nH]c(SCc2c(F)cccc2Cl)nc2c1CCC2	-1.2%	/	/	12	/	2.6
Cn1c(-c2nonc2N)nc2ccccc21	-2.1%	3%	0.3	34	-14%	-0.7
COc1ccccc1CNC(=O)CSc1n[nH]c(N)n1	/	5%	-1.9	35	1%[15.4 µM]	0.3
O=C1c2ccccc2C(=O)c2c1cccc2N1CCCC1	-3.7%	?	-0.7	16	-14%	3.2
CCOc1ccc(NC(=O)COc2ccc(S(=O)(=O)N3CCCC3)cc2)cc1	/	-2%	2.0	-16	-17%[15.4 µM]	0.9
Cc1ccc(C)c(NC(=O)CS(=O)(=O)c2cccc3nsnc23)c1	-0.5%	-33%	-1.3	/	-34%	/

# Next section.
SMILES,ClpP mod,gsp antag,Menin MLL FP FL,TRPML1 blocker,gsp agonist,TRPML1 agonist
C=CCNC(=O)c1c(CSc2ccc(Cl)cc2)noc1C(=O)NCCC,-0.3%,-17%,/,12,?,2.4
N=c1c2c3c(sc2ncn1N)CCC3,-1.0%,1%,0.4,4,29%,2.4
O=C(CC1CCCC1)Nc1ccc2c(c1)CCC2,0.9%,0%,0.2,2,-6%,-0.7
C[C@H](CO)N1C[C@H](C)[C@@H](CN(C)Cc2ccccc2C(=O)O)OCc2cnnn2CCCC1=O,-1.6%,/,/,-12,18%,-0.5
COc1ccc(C(=O)NNC(=O)CCn2nnc(-c3ccc(Cl)cc3)n2)cc1OC,/,7%,-0.3,0,0%[15.4 µM],1.7
COC(=O)CC(NS(=O)(=O)c1cccs1)c1ccc2c(c1)OCO2 (stereo not drawn),0.6%,2%,-0.1,27,22%,0.5
O=C(O)CCCCCN=Cc1c(O)c2ccccc2oc1=O,/,9%,-0.4,-6,-3%[15.4 µM],-0.3

# Outcome played no part in choosing rows; overall some 2.1% were active at least once.
